TRPML1 inh – human mucolipin-1 channel inhibition; Q9GZU1; TRPML1-inducible cells, Ca2+ dye fluorescence, FDSS; hits give low values; inhibition of EC80 agonist-evoked calcium signal; activity change, negative = inhibition, % (concentration not given with the values); actives 0.02% (n = 390,000); AID 624415; in the data active means activity change below about -50%; inconclusive means about -30% to -50%; inactive means above about -30%;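 further: stimulus is agonist 54-4 at its EC80 concentration; on the % scale 0 is the no-effect control and ±100 the full control effect; compound concentration not given in the record; the text of the record puts the active cut at -80%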
Target sequence (Q9GZU1 whole entry, looked up): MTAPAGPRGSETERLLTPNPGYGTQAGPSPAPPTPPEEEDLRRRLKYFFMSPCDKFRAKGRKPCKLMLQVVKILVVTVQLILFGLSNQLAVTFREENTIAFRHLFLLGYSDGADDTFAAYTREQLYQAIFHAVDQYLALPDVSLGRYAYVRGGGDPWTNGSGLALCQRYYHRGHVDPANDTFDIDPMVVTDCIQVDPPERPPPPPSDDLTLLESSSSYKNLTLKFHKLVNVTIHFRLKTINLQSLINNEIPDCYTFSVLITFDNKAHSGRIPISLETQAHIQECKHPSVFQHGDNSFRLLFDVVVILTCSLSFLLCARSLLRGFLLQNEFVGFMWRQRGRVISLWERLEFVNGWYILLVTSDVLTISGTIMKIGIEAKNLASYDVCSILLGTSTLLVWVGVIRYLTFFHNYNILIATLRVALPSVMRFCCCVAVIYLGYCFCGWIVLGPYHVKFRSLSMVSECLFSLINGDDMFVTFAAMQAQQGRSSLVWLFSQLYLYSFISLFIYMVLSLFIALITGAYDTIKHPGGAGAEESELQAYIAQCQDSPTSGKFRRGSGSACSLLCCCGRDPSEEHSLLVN
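TRPML1-DL cells, Tet-induced overnight (~16 h, 37 °C) at 1,500 cells/well, were loaded with Ca8 no-wash dye plus quencher for 45-90 min at room temperature. Compounds were pinned during FDSS kinetic reading; agonist 54-4 at EC80 (4 uM final) then added.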
Sfp inh – Sfp phosphopantetheinyl transferase inhibition | Q9F4F7 | Biochemical Sfp PPTase activity, qHTS | Potency, µM, for inactives: max response, negative = inhibition, actives largely listed as inhibitors | actives 3.5% (n = 310,000); active means well fitted inhibition curve with a large enough effect; inconclusive means small, poorly fitted or top-dose-only effect, or another doubt; inactive means no such curve, though single readings can be large or run the other way;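 further: the enzyme is Sfp with the accession as filed and its product quenches rhodamine fluorescence; potency means the concentration at half of the fitted maximal effect; 0% = enzyme reaction without inhibitor and -100% = no enzyme wells; top concentration of the series not given in the record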
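Sfp 15 nM + cpd, 15 min RT; start w/ rhodamine-CoA 5 uM, BHQ-2-YbbR 12.5 uM (final); 50 mM Hepes pH 7.6, 10 mM MgCl2, 0.01% NP-40, 0.01% BSA; read 525/598 nm at 0 and 30 min.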
Menin-MLL FL inh – menin-MLL binding inhibition, fluorescein peptide. Fluorescence polarization, fluorescein-MLL peptide displacement from menin. FP activity change, % at 61.4 µM. 290,000 tested, under 10 active. AID 1766; inconclusive = falling polarisation curve, or a change in total fluorescence; inactive = total fluorescence flat and polarisation flat or rising; no compound was filed as active; the % refers to the polarisation; negative = inhibition;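 further: % of control where 0% means no effect; inhibitors lower the polarisation; unlabelled MLL peptide was the positive control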
gsp antagonist – antagonizes gsp, the McCune-Albright syndrome mutation. gsp-mutant cells, cAMP HTRF, 30 min; control for the full effect not named in the record. Potency, µM (doses to about 76.9 µM), for inactives: at the top dose activity change, negative = inhibition, actives largely listed as inhibitors. actives 0.4% (n = 340,000); active = falling curve of any shape with a large fitted effect; inconclusive = falling curve, mostly with a smaller effect; inactive = flat or rising curve; cell line not stated here;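 further: intracellular cAMP measured with PDE inhibitor Ro 20-1724 present during compound exposure; potency means the concentration at half of the fitted maximal effect; on the % scale 0 is the no-effect control and ±100 the full control effect; nearly all actives have a fitted effect of over 65% in size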
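Cells in G418 medium, seeded 16-24 h, 37C; buffer exchange to DPBS + 1 mM CaCl2, 0.5 mM MgCl2, 0.05% BSA; cpds in DMSO + […] (300 uM stock), 30 min 37C; HTRF cAMP detection.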
gsp agonist – agonists of gsp mutant (McCune-Albright syndrome); gsp mutant cells, cAMP HTRF, 30 min; control for the full effect not named in the record; Potency, µM (series often up to 76.9 µM), inactives show at the top dose activation (cAMP increase), usual class: activators; actives 0.13% (n = 340,000); AID 624287; active = well fitted activation curve with a large enough effect; inconclusive = small, poorly fitted or top-dose-only effect, or another doubt; inactive = no such curve, though single readings can be large or run the other way; cell line not stated here;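 further: phosphodiesterase inhibitor Ro 20-1724 added with compounds to block cAMP breakdown; potency means the concentration at half of the fitted maximal effect; nearly all actives have a fitted effect of over 60% in size; about a fifth of the inactives were tested at one dose only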
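Cells in DMEM/10% FBS with G418 were pretreated with compounds in DMSO plus […] (300 uM stock) for 30 min at 37C. cAMP was measured by HTRF (cAMP-d2 plus anti-cAMP antibody-K) after 30 min at room temperature.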
ClpP mod – qHTS Assay for Activators of ClpP; actives 1.9% (n = 340,000); Potency, µM (highest dose often 57.5 µM), for inactives: at the highest dose activity change, negative = active; AID 651965, 2013; ATP-dependent Clp protease proteolytic subunit (Bacillus subtilis (strain 168)), P80244; purified B. subtilis ClpP, FRET peptide cleavage, 20 min; active = well fitted falling curve with a large enough effect; inconclusive = small, poorly fitted or top-dose-only effect; inactive = no such curve, though single readings can be large or run the other way; further: potency means the concentration at half of the fitted maximal effect; the source files actives as falling curves though it sought activators and does not explain the sign; nearly all actives have a fitted effect of over 65% in size; many hits overshoot -100%
Target sequence (P80244 whole entry, looked up): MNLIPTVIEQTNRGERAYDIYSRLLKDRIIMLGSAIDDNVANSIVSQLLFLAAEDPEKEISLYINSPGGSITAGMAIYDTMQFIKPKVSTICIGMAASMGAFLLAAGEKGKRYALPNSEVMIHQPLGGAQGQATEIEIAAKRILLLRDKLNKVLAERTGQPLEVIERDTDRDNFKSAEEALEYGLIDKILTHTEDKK
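Purified B. subtilis ClpP, 10 microg/mL final in Tris/HCl pH8 with KCl, BSA, glycerol and Tween-20, cleaved an Abz/nitrotyrosine-quenched decapeptide. Fluorescence (ex 320, em 430) was read at 0 and 20 min at room temperature. Delta was normalized to 5.8 microM ADEP and DMSO/no-enzyme controls.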
TRPV1 potentiator – potentiators of human vanilloid receptor 1 (TRPV1). TRPV1-expressing cells, Fluo-8 calcium influx, capsaicin EC20 potentiation; host cell line not named in the record; control for the full effect not named in the record. potentiation, % at 8.33 µM. AID 540277. Q8NER1. actives 0.02% (n = 320,000); active means potentiation above 80%; inconclusive means 30% to 80%; inactive means below 30%; further: 0% is about no effect
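Fluo-8 calcium influx in TRPV1-expressing cells, kinetic read (ex 480/em 520 nm). Compound added and read 3 min for agonist activity, followed by capsaicin at EC20 final and 2 min further read for enhancement.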
* = called active by the depositor; ? = inconclusive; . = not tested or not shown; & = joins results of further samples; [ ] = dose if it differs, or a comment.

Sequence of screens: TRPML1 inh	Sfp inh	Menin-MLL FL inh	gsp antagonist	gsp agonist	ClpP mod	TRPV1 potentiator
COc1cc(CSc2nc(-c3ccccc3)cc(=O)[nH]2)cc(OC)c1
  50.8	8.2%	-1.5	1.1%	-9.2%	5.4%	3.9
CC(C)[C@H](NC(=O)OCc1ccccc1)C(=O)NC(C=O)Cc1ccccc1 (stereo not given in full)
  -13.6	.	.	-2.5%	.	-0.5%	-19.9
CC(C)(C)NC(=O)CN(C(=O)CN1C(=O)C(=O)c2ccccc21)C(C)(C)C
  14.9	7.7%	2.5	7.6%	-7.5%	-3.5%	?
COC(=O)c1ccc(NC(=O)CN(Cc2ccc(Cl)cc2)S(C)(=O)=O)cc1
  -10.0	15.9%	-1.6	-29.7%	-10.1%	-0.2%	1.4
Cc1ccc(C2=NNC(=O)C(P(=O)(c3ccccc3)c3ccccc3)C2)cc1 (stereo not given)
  -1.6	29.8%	-5.3	-1.1%	2.2%	-1.8%	0.8
CCOc1ccc(CCNC(=O)C2CC(=O)N(c3ccccc3OCC)C2)cc1OCC (stereo not given)
  -16.3	.	.	-1.7%	-13.8%[15.4 µM]	.	17.5
CC(=O)n1c(=O)oc2ccccc21
  -15.5	.	.	4.9%	-0.9%	-0.5%	.
CCSc1ncc(/C=N/Nc2ccc([N+](=O)[O-])cc2)n1C
  16.8	-8.7%	19.6	2.7%	-13.1%	0.4%	-3.1
O=C1/C(=C/c2ccccc2)CCc2ccc(Cl)nc21
  0.8	.	.	0.2%	-3.4%	-6.7%	.
CCc1cccc(N=c2c([N+](=O)[O-])nn(-c3ccc4c(c3)OCCO4)n2O)c1
  -6.4	9.0%	0.8	?	0.0%[15.4 µM]	.	-0.6
Cc1ccc(-c2csc(NC(=O)c3ccc([N+](=O)[O-])o3)n2)cc1
  4.1	-3.9%	0.0	?	-45.3%	-1.0%	-9.9
CCN1CCN(c2ncnc3c2nnn3Cc2ccccc2)CC1
  -6.4	-2.6%	0.8	9.3%	-11.0%	-0.7%	9.0
O=C(/C(C=Nc1ccc(F)cc1)=C(/O)c1ccco1)C(F)(F)F
  11.1	2.2%	12.0	-19.4%	1.4%	25.1µM*	-2.1
Cc1ccc(S(=O)(=O)N(C)C)cc1NS(=O)(=O)c1ccc(Cl)s1
  -7.8	14.9%	1.0	5.4%	-7.7%[15.4 µM]	-1.7%	-6.6
Cc1cc(=O)oc2cc(OCc3ccc(C(=O)OCC(=O)NC4CCS(=O)(=O)C4)cc3)ccc12 (stereo not given)
  -7.2	-19.9%	?	-1.3%	-13.0%[15.4 µM]	.	-1.6
Cc1cc(C)cc(OCC(=O)OCC(=O)NC2CCCCCC2)c1
  6.6	.	.	4.9%	-0.6%	1.1%	-11.9
COc1ccc(N2CCN(C(c3cccs3)C(C)NC(=O)c3ccc4c(c3)OCO4)CC2)cc1 (stereo not given)
  -0.5	14.7%	-2.1	-29.1%	-75.1%[inhibitor]	-3.5%	-12.8
CCCC/C=C/[C@H](c1ccccc1)[C@H](CO)Cc1cccnc1
  4.2&-7.5	0.9%	-1.3	9.5%	-13.5%	-2.9%	.
CC(=O)N1N=C(c2cccc([N+](=O)[O-])c2)OC1(C)c1cccs1 (stereo not given)
  .	-0.7%	0.2	-6.5%	-11.0%	-0.9%	3.7
O=C(CN1CCCc2ccccc21)Nc1ccccc1[N+](=O)[O-]
  19.3	7.3%	-1.3	-10.9%	0.5%[15.4 µM]	-1.5%	-6.8
Clc1ccccc1-c1nn2c(COc3ccccc3)nnc2s1
  23.9	?	6.5	8.4%	6.2%	0.1%	-7.2
CN(c1ccc(OCC(=O)Nc2nc(-c3ccccc3)cs2)cc1)S(=O)(=O)c1ccc(F)cc1
  -3.6	24.8%	-1.9	-1.7%	14.1%[15.4 µM]	-0.7%	-0.5
CN(CC(=O)Nc1cccc(F)c1)CC(=O)Nc1ccccc1Oc1ccccc1
  11.8	?	-2.1	-10.4%	-16.1%	-3.0%	-5.6
Cc1oc(-c2cccs2)nc1CN1CCN(CC(C)C)C(CCO)C1 (stereo not given)
  -8.6	8.2%	-1.2	6.8%	1.5%	.	-7.6
O=S1(=O)c2cccc3cccc(c23)N1Cc1nnc(-c2ccccc2Br)o1
  -6.9	1.0%	-1.7	-16.8%	-27.3%	?	6.0
O=C(NCc1ccccn1)c1ccc2ccccc2n1
  0.2	13.9%	-2.4	7.2%	-41.3%[inhibitor]	-3.1%	11.3
NC(=O)c1c(NC(=O)Cn2cc([N+](=O)[O-])cn2)sc2c1CCCC2
  -17.1	4.3%	5.4	-3.5%	13.5%[15.4 µM]	1.4%	-7.4
CCOc1ccc(/C=C2/Sc3ccc(C(=O)N4CCN(C(=O)c5ccco5)CC4)cc3N(C)C2=O)cc1OC
  .	12.2%	-0.9	.	.	.	?
O=C(CN1CCOCC1)Nc1ccc(Br)cc1
  4.3	13.0%	1.0	11.5%	-1.1%[15.4 µM]	0.4%	6.2
CCn1c(Cc2ccc(OC)cc2)nc2ccccc21
  11.9	0.7%	-0.1	-11.2%	-5.0%[15.4 µM]	-29.6%	22.8
COc1ccc(C(=O)NCc2nnc(SCC(=O)Nc3cc(C)cc(C)c3)o2)cc1OC
  14.0	14.0%	6.3	-3.1%	-37.2%[inhibitor]	1.1%	-2.6
O=C(CN1C(=O)C2CCCCC2C1=O)Nc1cccc(C(F)(F)F)c1 (stereo not given)
  -1.5	.	.	4.1%	2.6%[15.4 µM]	0.9%	.
COc1ccc(S(=O)(=O)Nc2nc3ccccc3nc2NCC2CCCO2)cc1 (stereo not given)
  8.8	21.6%	4.3	-11.4%	21.8%[15.4 µM]	.	5.4
COC(=O)c1ccccc1NC(=S)NC(=O)C1CC1
  -8.1	-2.3%	6.3	-1.4%	-4.4%	4.8%	-13.6
CCCCCC/C(=N\NS(C)(=O)=O)c1ccccc1
  3.3	-1.8%	4.2	-25.7%	1.2%	2.6%	24.5
CCOc1ccc(NC(=O)CN(C)C(=O)C2(c3ccccc3)CC2)cc1OCC
  17.8	.	.	6.9%	-2.5%	-0.4%	8.9
COc1ccc(C2(C)NC(=O)N(CC(=O)Nc3ccc(Br)c(C)c3)C2=O)cc1OC (stereo not given)
  -7.9	3.0%	0.4	?	-7.7%[15.4 µM]	.	-6.8
O=C(C1=C[C@@H](c2coc3ccccc3c2=O)C[C@@H](OCCCCO)O1)N1CCN(Cc2ccccc2)CC1
  -1.9	9.9%	-7.4	-12.8%	-1.1%	-2.9%	-2.7
CCOC(=O)Nc1cc(N)ncn1
  -5.7	.	.	10.3%	-33.5%[inhibitor]	-1.8%	.
COc1ccc(CN(C)C(=O)c2cc(-c3ccc(OC)c(OC)c3)nc3ccccc23)c(OC)c1
  12.3	13.8%	.	-9.6%	?	4.4%	28.8
Cc1ccc(-c2onc3ccc(Cl)cc23)cc1
  4.7	3.5%	1.1	3.7%	-14.6%	-2.2%	1.4
O=C(COC(=O)c1ccc(Cl)c(S(=O)(=O)N2CCCC2)c1)NCc1ccccc1
  30.4	.	.	-4.3%	-2.1%[15.4 µM]	-2.6%	.
CCOC(=O)c1c(NC(=O)COc2cccc3c2CCN(Cc2ccc(F)cc2)C3=O)sc2c1CCC2
  .	9.4%	2.6	.	.	.	-5.1
COC(=O)Cn1cc(C(=O)C(F)(F)F)c2ccccc21
  -6.1	15.0%	-2.9	-31.3%	8.1%[15.4 µM]	1.4%	-5.9
Brc1ccc2c(c1)CN1CCCC1=N2
  -3.9	-3.7%	0.4	4.2%	-16.0%	1.7%	21.3
Cc1nnc(N(C(=O)c2cnccn2)c2ccccc2)s1
  37.8	11.7%	2.4	5.4%	-26.9%	-1.9%	7.1
COc1ccc(S(=O)(=O)N2CCOC23CCN(S(=O)(=O)c2cccs2)CC3)cc1
  51.4	.	.	-6.1%	3.5%[15.4 µM]	0.8%	-12.2
O=C(c1ccc(Br)cc1)N1CCC(C(=O)N2CCN(Cc3ccccc3)CC2)CC1
  5.2	-0.3%	.	-4.7%	-3.9%	-7.8%	20.8
COC(=O)CC[C@@H](C(=O)O)N1C(=O)c2ccccc2C1=O
  -8.3	19.3%	27.8	2.6%	7.2%	-3.2%	6.0
CC(=O)Nc1ccc(NC(=O)COC(=O)Cc2cccs2)cc1
  -22.5	-4.5%	4.2	4.7%	1.5%	-1.9%	-2.6
Cc1ccnc(NS(=O)(=O)c2ccc(NS(=O)(=O)c3ccc(Br)cc3)cc2)n1
  27.4	19.1%	-1.6	-7.4%	?	-2.8%	10.8
CC(C)C[C@H](NC(=O)[C@H](Cc1ccccc1)n1c(=O)[nH]c2ccccc2c1=O)C(=O)N1CCC(C(=O)O)CC1
  .	8.2%	-4.8	7.3%	.	?	6.7
COCC(=O)N1C[C@H]2CON(C)[C@H]2C[C@H]1c1cccc(-c2ccccc2OC)c1
  2.4	.	.	.	-68.5%[inhibitor]	-1.5%	.
Cc1ccccc1C1c2[nH]c3ccccc3c2CCN1CCCn1cccn1 (stereo not given)
  22.7	-16.9%	2.6	-5.7%	?	.	-11.9
CCN(CC)CCCN=Cc1c(O)n(Cc2ccccc2)c(=O)c2ccccc12
  -6.4	4.5%	-2.8	6.8%	6.4%	1.5%	16.6
Cc1noc(C(=O)Nc2c(C)n(C)n(-c3ccccc3)c2=O)c1Cl
  -13.4	22.7%	1.6	5.3%	-24.5%	-0.1%	4.9
CC1CCCCN1CCNC(=O)CC1Oc2ccccc2NC1=O (stereo not given)
  -2.0	19.0%	7.3	6.8%	12.2%	1.0%	13.1
O=C(Nc1cnn(Cc2ccc(Cl)cc2)c1)c1cnccn1
  -17.5	23.7%	3.6	-2.3%	?	-0.9%	-9.9
Cc1ccc(CN(C(=O)COc2ccc(C)c(C)c2)C2CCS(=O)(=O)C2)o1 (stereo not given)
  -15.5&21.2	4.0%	0.6	-6.5%	25.4%	-0.1%&0.5%	-3.3

Bioassay records from PubChem.
